Compound activity as filed in PubChem BioAssay.
KCNQ2 enhance: potentiators of rat KCNQ2 potassium channel. Potassium voltage-gated channel subfamily KQT member 2 (Rattus norvegicus), O88943. CHO-K1 KCNQ2, FluxOR thallium flux fluorescence; active compounds read high. B-score at 10 µM. actives 0.54% (n = 310,000). AID 2239, 2010;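 active means fluorescence ratio B-score at least 3 SD of library B-scores, with initial fluorescence B-score within 3 SD, cut at about 5.3 in these data; same plate scores as AID 2156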;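 further: B-score of peak minus minimum over baseline fluorescence ratio after K+ and Tl+ stimulus; positive B-score means potentiation of KCNQ2 with more thallium influx and brighter signal; only the inactives scoring about 0 or higher are listed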
Target sequence (O88943 whole entry, looked up): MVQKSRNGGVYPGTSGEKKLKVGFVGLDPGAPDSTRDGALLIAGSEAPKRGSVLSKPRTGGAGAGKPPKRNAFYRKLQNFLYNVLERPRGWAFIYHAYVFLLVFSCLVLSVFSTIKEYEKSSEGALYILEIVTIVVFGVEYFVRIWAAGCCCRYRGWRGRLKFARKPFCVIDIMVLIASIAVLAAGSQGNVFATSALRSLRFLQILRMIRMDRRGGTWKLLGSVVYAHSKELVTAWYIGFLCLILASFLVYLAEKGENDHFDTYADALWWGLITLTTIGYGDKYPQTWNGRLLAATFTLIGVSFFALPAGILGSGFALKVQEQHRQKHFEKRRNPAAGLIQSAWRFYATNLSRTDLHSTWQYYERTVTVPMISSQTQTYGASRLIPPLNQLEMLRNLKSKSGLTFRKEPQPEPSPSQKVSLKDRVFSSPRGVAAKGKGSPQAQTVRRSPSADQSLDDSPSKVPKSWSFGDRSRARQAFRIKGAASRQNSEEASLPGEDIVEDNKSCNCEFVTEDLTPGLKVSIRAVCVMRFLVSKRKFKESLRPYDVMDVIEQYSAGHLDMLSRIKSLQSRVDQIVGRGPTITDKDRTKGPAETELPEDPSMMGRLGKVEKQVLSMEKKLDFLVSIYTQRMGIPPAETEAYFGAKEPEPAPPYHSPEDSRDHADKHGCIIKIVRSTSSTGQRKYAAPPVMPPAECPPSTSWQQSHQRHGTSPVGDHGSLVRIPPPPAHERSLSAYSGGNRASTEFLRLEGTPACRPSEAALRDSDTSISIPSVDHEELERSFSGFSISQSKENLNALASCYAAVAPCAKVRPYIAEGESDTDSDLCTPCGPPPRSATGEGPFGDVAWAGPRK
KCNQ2 enhance baseline: also measured in KCNQ2 enhance; calls as there; B-score; compound at 10 µM; measured here: initial fluorescence intensity artifact check;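 brightness before thallium and not channel activity; 0 = typical well and far values either way flag optical interference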
An asterisk follows results filed as active. This is a subset. The share of hits here may be higher or lower than overall.

molecule	KCNQ2 enhance	KCNQ2 enhance baseline
COc1ccccc1OCc1nnc(SCC(=O)NCc2ccco2)n1Cc1ccco1	1.58	-1.55
COc1ccc(CC(NC(C)=O)C(=O)NC2CCN(c3c4c(nc5ncnn35)CCC4)CC2)cc1 (stereo not drawn)	0.15	-2.45
Cc1[nH]c2ccccc2c1C(=O)CNc1nccs1	1.42	-0.02
N#Cc1ccc(-c2ccc(F)cc2)nc1Sc1ccc(F)cc1	0.67	-0.02
S=C(NC1CCCCC1)N1CCN(Cc2ccccc2)CC1	0.39	0.76
COC(=O)c1ccc(OCC(O)CN(CCO)CC(O)Cn2ccc3ccccc32)cc1 (stereo not drawn)	0.46	1.38
NC(=O)CC(NC(=O)c1ccccc1)c1ccc(N2CCC(N3CCCC3)CC2)c([N+](=O)[O-])c1 (stereo not drawn)	0.2	2.2
O=C(Nc1ccc(N2CCCC2)cc1)c1ccc(Br)o1	0.31	-0.57

The list goes on:
molecule	KCNQ2 enhance	KCNQ2 enhance baseline
Cc1cc(C)c(C#N)c(SC(C(=O)NC(C)(C)C)c2ccccc2)n1 (stereo not drawn)	2.1	0
COc1ccc(CCNC(=O)c2ccc(OCC(=O)N3CCOCC3)c(OC)c2)cc1OC	1.14	-2.09
CCn1nc(NC(=O)Cc2ccc(OC)cc2)c2cc3cccc(C)c3nc21	0.97	1.1
CC[C@@H](C(=O)[C@@H](C)[C@@H](O)[C@H](C)CCc1ccc(C)c(O)c1C(=O)O)[C@H]1O[C@](CC)([C@H]2CC[C@](O)(CC)[C@H](C)O2)C[C@@H]1C	27.4*	2.16*
CSc1ccc(/C=C/C(=O)c2ccc(NC(=O)C(C)C)cc2)cc1	0.62	0.09
Cc1ccc(C(=O)NC(=S)Nc2ccccc2C)cc1	0.5	-1.92
COc1ccc(NC(=O)Nc2ccc(OC)cc2)cc1	0.47	-0.01
Cc1nn(C)c(C)c1NC(=O)CCl	0.19	-0.2

Following part:
molecule	KCNQ2 enhance	KCNQ2 enhance baseline
Cc1cc2[nH]c(=O)c(=O)[nH]c2cc1S(=O)(=O)Nc1ccccc1F	0.78	-0.11
O=C(CCN1CCCC1=O)NC1CCCc2c1cnn2-c1ccccc1F (stereo not drawn)	0.83	0.74
O=C(Cn1cc([N+](=O)[O-])cn1)N1CCN(c2ccccc2)CC1	0.02	-1.59
CN(c1ccccc1C(=O)Nc1ccc(S(=O)(=O)N2CCOCC2)cc1)S(=O)(=O)c1ccccc1	1.21	-0.52
COc1ccccc1N(C1=NCCCS1)S(=O)(=O)c1ccc(C(C)(C)C)cc1	0.3	0.12
N#Cc1ccccc1NC(=O)CN1CCN(c2ccccn2)CC1	0.05	0.45
CCOc1cccc(C(=O)N(Cc2ccc(F)cc2)C2CCS(=O)(=O)C2)c1 (stereo not drawn)	0.22	-0.07
COc1ccc(/C=C/C(=O)c2ccc(OC)cc2O)cc1	0.23	0.04

Next structures
molecule	KCNQ2 enhance	KCNQ2 enhance baseline
C=CCn1c(SCC(=O)N2CC(=O)Nc3ccccc32)nc2scc(-c3ccccc3)c2c1=O	0.27	1.66
CC(=O)NS(=O)(=O)c1ccc(NC(=O)c2cccc3ccccc23)cc1	0.42	2.29
CCOC(=O)C(NC(=O)NCc1ccc(OC)cc1)(OCC)C(F)(F)F (stereo not drawn)	1	-1.31
CCCCC(=O)Nc1ccc(C(=O)NNC(=S)NC(=O)c2cccs2)cc1	1.29	-0.52
Cc1c(C(=O)Nc2ccccc2)sc2nc[nH]c(=O)c12	0.34	1.04
O=C(CSc1nc2ccccc2n1CC(=O)N1CCOCC1)N1CCCC1	0.18	0.34
O=C(NCC1CCCO1)c1cccc(F)c1 (stereo not drawn)	0.03	0.05
O=[N+]([O-])c1cccnc1N1CCN(Cc2ccc3c(c2)OCO3)CC1	1.74	-0.38

A few values from the results shown:
CC(=O)NS(=O)(=O)c1ccc(NC(=O)c2cccc3ccccc23)cc1 @ KCNQ2 enhance: 0.42
O=C(CSc1nc2ccccc2n1CC(=O)N1CCOCC1)N1CCCC1 @ KCNQ2 enhance: 0.18
Cc1c(C(=O)Nc2ccccc2)sc2nc[nH]c(=O)c12 @ KCNQ2 enhance baseline: 1.04

Further compounds
molecule	KCNQ2 enhance	KCNQ2 enhance baseline
Cc1ccc(NC(=O)C[n+]2ccn(C3=C([O-])c4ccccc4C3=O)c2)cc1	0.94	0.67
CC1(N2CCOCC2)C(=O)c2ccccc2C1=O	0.09	-0.32
C/C(Cc1ccccc1)=N\NC(=O)c1ccccn1	0.04	-0.78
Cc1ccc(C2CCN(C(=S)NC(C)C)C2)cc1 (stereo not drawn)	0.72	-0.8
O=C(O)CN1C(=O)SC(Nc2ccccc2C(=O)O)C1=O (stereo not drawn)	1.02	-0.65
N#Cc1c(SCC(N)=O)nc2c(c1-c1ccc(O)cc1)CCCC2	0.61	0.23
Cc1cc(CC(=O)O)c2oc(-c3ccoc3)cc(=O)c2c1	0.03	-0.95
COc1ccc(CN2CCN(C(=O)CC(C)C)CC2)c2ccccc12	0.41	-0.45

Going on with the list:
molecule	KCNQ2 enhance	KCNQ2 enhance baseline
Cc1ccccc1C1c2[nH]c3ccccc3c2C[C@H]2C(=O)N(C3CC3)CC(=O)N12 (stereo partly drawn)	0.04	0.62
CCOC(=O)c1[nH]c(C)c(/C=N/O)c1C	0.35	0.93
COc1ccc(-c2[nH]ncc2/C=C(\C#N)C(=O)NC2CC2)cc1	0.44	1.83
CSC1=N/C(=C\c2cccnc2)C(=O)N1c1ccccc1	0.7	-0.52
Cc1ccc(C2CC2/C(=N/O)c2ccc(F)cc2)cc1 (stereo not drawn)	1.95	0.67
CN1C(=O)N(C)C(NC(=O)Nc2ccccc2)C1NC(=O)Nc1ccccc1 (stereo not drawn)	0.24	2.7
CCOC(=O)c1nnn(CC(=O)NC(=O)Nc2cccc(CC)c2)c1C(=O)OCC	0.82	2.91
C#CCOC(=O)c1cc(Cl)c(=O)n(Cc2ccc(Cl)cc2Cl)c1	0.87	-0.02

(listing goes on)
molecule	KCNQ2 enhance	KCNQ2 enhance baseline
CC1(C)CC(NC(=O)C2CCC(=O)N(Cc3ccccc3F)C2)CC(C)(C)C1 (stereo not drawn)	1.66	0.23
Brc1c(CSc2nncn2-c2ccccc2)nc2sccn12	0.85	-0.56
CCCC(=O)Nc1ccc(C(=O)NNC(=S)NC(=O)c2cccs2)cc1	1.15	-2.34
Cc1c(C(=O)Nc2ccncc2)oc2ccccc12	1.3	-0.44
CN(CC(=O)Nc1ccccc1C(F)(F)F)C(=O)c1cc([N+](=O)[O-])ccc1N1CCOCC1	0.05	-1.15
Cc1cc(Cl)ccc1OCC(=O)NCCCn1ccnc1	0.18	0.94
Cc1ccc2nc(NC(=O)CSc3nc4ccccc4o3)sc2c1	1.14	-1.43
O=c1cc(-c2ccccc2)nc2cc(-c3ccc(F)cc3)[nH]n12	0.41	-0.54

(next part)
molecule	KCNQ2 enhance	KCNQ2 enhance baseline
COc1ccc(/C=N/NC(=O)CNC(=O)C2COc3ccccc3O2)cc1OC (stereo not drawn)	0.02	-0.28
CC1CCCC(NC(=O)COC(=O)Cc2ccc(Br)cc2)C1C (stereo not drawn)	0.24	0.64
Cn1c(=O)[nH]c(=O)c2c1nc(NCc1ccccc1)n2Cc1ccc(F)cc1	0.27	-0.09
CC(C)(C)c1ccc(C(=O)Nc2ccc(F)cc2)s1	0.73	0.17
Cn1c(=O)c(=O)n(C)c2cc(S(=O)(=O)Nc3ccc(OC(F)(F)F)cc3)ccc21	0.63	0
Cc1ccc(C)c(N(CC(=O)NC2CCCCC2)C(=O)CNC(=O)c2ccco2)c1	0.68	-0.01
CCOc1ccc2nc(N/C(N)=N/S(C)(=O)=O)nc(C)c2c1	0.71	-0.95
CCc1ccc(N2CC(C(=O)NCc3ccco3)CC2=O)cc1 (stereo not drawn)	0.3	-0.37

The list continues.
molecule	KCNQ2 enhance	KCNQ2 enhance baseline
CCc1ccccc1NC(=O)CCC(=O)Nc1nnc(C(C)C)s1	0.14	1.26
Cc1ccc(F)cc1NC(=O)CCc1c(C)[nH]c(=O)c(C#N)c1C	1.01	0.6
CCc1c(O)nc(SC2CC(=O)N(c3ccccc3)C2=O)[nH]c1=O (stereo not drawn)	0.92	-0.38
CCOC(=O)c1sc(N/N=C/c2ccccc2)nc1C	1.19	-0.33
CC(NCc1ccc(S(N)(=O)=O)cc1)C(=O)NCc1ccccc1 (stereo not drawn)	0.81	1.56
Cc1c(C=O)cnn1CCC(=O)O	0.64	0.93
Cc1cccc(NC(=O)C(=O)NCc2ccccn2)c1	0.96	0.25
CCOc1ccc(CN2C(=O)c3ccccc3C2=O)cc1C(=O)Nc1nnc(SCC)s1	0.67	1.95

Remaining list, next part:
molecule	KCNQ2 enhance	KCNQ2 enhance baseline
CC1CCN(C(=O)CSc2nnc(CNC(=O)c3ccco3)o2)CC1	0.77	0.29
CCOC(=O)C1(Cc2cccc(F)c2)CCN(C(=O)c2cnc(C)cn2)CC1	0.06	0
Cc1ncc([N+](=O)[O-])n1CC(=O)Nc1ccc(F)cc1	0.53	-0.05
CCOc1ccc(NC(=S)N(C)C)cc1	1.56	0.01
O=C(COc1ccc(Cl)cc1)NCc1nnc(SCC(=O)N2CCCC2)o1	1.1	-0.54
COC(=O)C1=C(C)N(C)C(=S)N(C)C1c1ccc(OC)cc1 (stereo not drawn)	0.08	0
CC(=O)c1c(COC(=O)c2ccc(F)cc2)nc2ccccc2[n+]1[O-]	0.07	0.57
COC(=O)c1ccc(NC(=O)CSc2nc3ncccc3[nH]2)cc1	1.07	-0.5

One compound at a time, from the list above. Order of values: KCNQ2 enhance | KCNQ2 enhance baseline
Cc1ccc(C2CCN(C(=S)NC(C)C)C2)cc1 (stereo not drawn) as listed: 0.72 | -0.8
CCn1nc(NC(=O)Cc2ccc(OC)cc2)c2cc3cccc(C)c3nc21 as listed: 0.97 | 1.1
COc1ccccc1N(C1=NCCCS1)S(=O)(=O)c1ccc(C(C)(C)C)cc1 as listed: 0.3 | 0.12
C=CCn1c(SCC(=O)N2CC(=O)Nc3ccccc32)nc2scc(-c3ccccc3)c2c1=O as listed: 0.27 | 1.66
O=C(CSc1nc2ccccc2n1CC(=O)N1CCOCC1)N1CCCC1 as listed: 0.18 | 0.34

The results go on:
molecule	KCNQ2 enhance	KCNQ2 enhance baseline
O=C(Nc1ccc(C(=O)O)cc1)/C(=C\c1ccco1)NC(=O)c1ccccc1Cl	0.22	0.77
CCNC(=O)c1ccc(CSc2nc3ccccc3s2)cc1	1.32	-0.92
COCC(=O)N(C)c1nnc(-c2ccccn2)s1	0.27	-1.75
CCOc1cc(C(=O)NC)cc(Br)c1OC	0.02	-0.35
CCC(=O)NCCCCCCCCCNC(=O)CC	0.9	-1.25
CCN1C(=O)N[C@@H](c2ccccc2)C(C(=O)OC)=C1C	0.27	2.24
CCN1CCN(c2ccc(S(=O)(=O)N3CCCC3)cn2)CC1	0.17	0.38
Cn1cc(C(=O)N/N=C/C=C/c2ccccc2)ccc1=O	0.36	0.16

The list goes on.
molecule	KCNQ2 enhance	KCNQ2 enhance baseline
CCOC(=O)C1CCCN(C(=O)c2ccc(NC(=O)CC3SC(N4CCCC4)=NC3=O)cc2)C1 (stereo not drawn)	1.25	-0.28
O=C(NCC(=O)N1CCN(c2ncccn2)CC1)c1cccs1	0.19	1.8
CCOC(=O)C1=C(C)C(c2cccc(Oc3ccccc3)c2)NC(=S)N1 (stereo not drawn)	0.46	0.52
CN(C)c1nccc(NCc2ccccc2)c1C#N	0.16	0.24
C/C(=N\NC(=O)C1CC1)c1ccc(N2CCOCC2)cc1	0.08	0.02
O=C(c1ccc(Cl)cc1)N1CCC(N2CCC(C(=O)N3CCOCC3)CC2)CC1	0.28	-1.25
O=C(CCN1C(=O)COc2ccccc21)NCc1cccs1	0.26	-2.19
COc1cccc(N(CC(=O)O)S(=O)(=O)c2ccccc2)c1	1.38	0.14

Next part:
molecule	KCNQ2 enhance	KCNQ2 enhance baseline
C#C[C@]1(O)CC[C@H]2[C@@H]3CCc4cc(OC5CCCC5)ccc4[C@H]3CC[C@@]21C	0.07	0.53
O=C1CSC(=NC2CCCCC2)N1	3.4	-1.09
O=C(N/N=C/c1ccco1)c1cc2ccccc2o1	1.22	-0.21
COc1cccc2cc(-c3cc(=O)oc4ccc(OCC(C)=O)cc34)oc12	0.06	-0.62
CCc1c(C)n([O-])c2c([n+]1=O)CCCCC2	1.38	-0.01
COc1ccc(-n2nc([N+](=O)[O-])c(=NCCc3ccc(Cl)cc3)n2O)cc1	0.92	-2.67
CCOC(=O)NC(=O)CSc1nc2ccc([N+](=O)[O-])cc2[nH]1	0.87	0.3
COc1ccc(NC(=O)C(c2ccc(Cl)cc2)C(C)C)cn1 (stereo not drawn)	1.53	-0.04

(next part)
molecule	KCNQ2 enhance	KCNQ2 enhance baseline
Cc1ccc(CNC(=O)C2CCC(CNS(=O)(=O)c3cccs3)CC2)cc1 (stereo not drawn)	0.61	-0.48
CCCn1ncc(CN2CCC(Cc3cccc(F)c3)(C(=O)OCC)CC2)c1C	0.23	0.14
O=[N+]([O-])c1ccc(NCCOc2ccccc2Cl)nc1	1.2	-0.02
CCCCNCCCOc1cccc(Cl)c1Cl	1.18	1.01
O=C1OCCC1Sc1nc2cc(Cl)ccc2s1 (stereo not drawn)	0.03	0.6

Part of the list above in order of molar mass, falling:
molecule	KCNQ2 enhance	KCNQ2 enhance baseline
COc1ccc(NC(=O)C(c2ccc(Cl)cc2)C(C)C)cn1 (stereo not drawn)	1.53	-0.04
O=[N+]([O-])c1ccc(NCCOc2ccccc2Cl)nc1	1.2	-0.02
O=C1OCCC1Sc1nc2cc(Cl)ccc2s1 (stereo not drawn)	0.03	0.6
